Source: PubChem (several laboratories)
Beta2AR agonist – agonists of human beta-2 adrenergic receptor inducing internalization | response, % (concentration not given with the values) | 340,000 tested, 0.43% active | P07550 | Am2.2-beta2AR cells, FAP receptor internalization, flow cytometry; reference of the scale not given here | AID 504454;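 active = response above a set limit, near 3 SD of response in nonfluorescent compounds, cut at about 42% in these data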;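 also: stock transfer was 100 nL into about 11 µL; a reference agonist was the positive control; negative values mostly stem from fluorescent compounds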
HNF4A DNA FP – change in binding of human HNF4 alpha to DNA; P41235; HNF4a-FITC DNA binding, fluorescence polarization, 1 h; activity change, % at 10 µM; 360,000 tested, 0.3% active; AID 1224865; in the data active = activity change above about 30%, passing the limit was not always enough;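 also: controls were the assay level and a saturating level of protein; the project sought stronger binding though the title names inhibitors; some compounds called inactive have numbers as strong as hits; positive values seem to mean higher polarization but the record does not say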
Target sequence (P41235 whole entry, looked up): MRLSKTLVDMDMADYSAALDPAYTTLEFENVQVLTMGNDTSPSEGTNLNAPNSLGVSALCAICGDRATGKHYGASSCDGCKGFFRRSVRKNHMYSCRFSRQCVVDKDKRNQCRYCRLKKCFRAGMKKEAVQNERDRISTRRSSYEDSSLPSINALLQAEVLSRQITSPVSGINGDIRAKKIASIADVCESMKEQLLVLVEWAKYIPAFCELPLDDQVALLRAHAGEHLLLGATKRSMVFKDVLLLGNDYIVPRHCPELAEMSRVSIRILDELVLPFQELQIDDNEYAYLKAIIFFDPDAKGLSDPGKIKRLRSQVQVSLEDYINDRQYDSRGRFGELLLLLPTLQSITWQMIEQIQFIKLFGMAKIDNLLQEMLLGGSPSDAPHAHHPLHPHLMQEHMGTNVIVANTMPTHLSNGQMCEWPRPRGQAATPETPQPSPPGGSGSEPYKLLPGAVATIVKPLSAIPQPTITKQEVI
LANA-H2A inh – blocks KSHV LANA binding to histone H2A/H2B; Q9QR71; cell-free LANA-H2A/H2B peptide, fluorescence polarization; inhibition, % (test concentration not listed); 320,000 tested, 0.6% active; in the data active = inhibition mostly above about 10%, no sharp cut-off; inactive = mostly below about 6.7%;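 also: stock transfer was 7.5 nL into about 10 µL; 0% = median of vehicle wells and 100% = median of positive control wells; one replicate is shown; the record names a cut of 25% in any replicate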
ALR H2O2 inh – blocks human ALR sulfhydryl oxidase activity; purified ALR, DTT oxidation, H2O2 HRP-luminol luminescence; inhibition, % (test concentration not listed); 290,000 tested, 3.8% active; AID 485317;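 active = mean and each replicate at 75% or more; inconclusive = only one of the two met; inactive = neither met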;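 also: stock transfer was 7.5 nL into about 7.5 µL; 0% = neutral wells and 100% = wells with inactivated enzyme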
Target sequence (P55789 whole entry, looked up): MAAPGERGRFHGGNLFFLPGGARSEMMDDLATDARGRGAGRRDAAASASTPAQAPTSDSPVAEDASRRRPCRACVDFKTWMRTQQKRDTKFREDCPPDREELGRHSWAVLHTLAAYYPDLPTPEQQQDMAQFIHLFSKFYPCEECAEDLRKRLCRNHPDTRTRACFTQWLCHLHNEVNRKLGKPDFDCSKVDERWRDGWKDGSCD
Calb FLC – C. albicans growth modulation with fluconazole; C. albicans CaCi-2 (fluconazole-resistant clinical isolate) + fluconazole, Alamar Blue growth, 48 h; growth inhibition, % (concentration not given with the values); 300,000 tested, 0.57% active; AID 1979;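 active = most replicates above 75%; inconclusive = exactly half above 75%; inactive = most below 75%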;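 also: all wells also contain fluconazole at 8 µg/ml as a sub-toxic cotreatment; 0% = median of DMSO wells and 100% = median of geldanamycin control wells; wells of about 8 µL received 7.5 nL stock; the first replicate is given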
RanGTP-Impb inh – inhibitors of RanGTP-importin-beta interaction, primary screen, biochemical, FRET, CFP-Ran, YFP-importin-beta, homogeneous | cell-free CFP-Ran/YFP-importin-beta FRET ratio | 300,000 tested, 1.1% active | inhibition, % (no concentration beside the values);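 active = most replicates above 15%; inconclusive = exactly half above 15%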;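 also: 0% = DMSO wells and 100% = Ran loaded with GDP instead of GTP; wells of about 40 µL received 100 nL stock; the first replicate is given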
Vif A3G – inhibitors of Vif binding to APOBEC3G peptide, primary screen, biochemical, TR-FRET, GST-Vif 1-94, biotin-A3G peptide, dose response retest (AID 1117319); TR-FRET GST-Vif / biotin-A3G peptide binding; higher % means a stronger effect; test concentration not given here; strong numbers were not always called active; inhibition, %; hits with a dose series show IC50 in µM; 260,000 tested, 0.57% active;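 active = above the screen mean plus three standard deviations and confirmed in dose response; inconclusive = results disagree or hit not tested in dose response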;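 also: Vif residues 1-94 fused to GST binding biotinylated APOBEC3G peptide 110-148; 0% = full assay without inhibitor and 100% = GST in place of GST-Vif; retest series ran down from 100 µM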
* hit, by the source's call; ? = inconclusive; / = no result given; & = joins results of further samples. A portion of the library; count on the stated rates, not on these rows.

Screens by letter: A = Beta2AR agonist; B = HNF4A DNA FP; C = LANA-H2A inh; D = ALR H2O2 inh; E = Calb FLC; F = RanGTP-Impb inh; G = Vif A3G
O=C(CNC1CCCC1)Nc1ccc(N2CCCCCC2)cc1
  A: 6.2; B: 2.5; C: 4.3; D: /; E: 2.9; F: -2.7; G: 10.8%
C[C@]12CCC3C(CC[C@H]4[C@H](O)[C@H](O)CC[C@]34C)C1CCC2=O (some centres not stated)
  A: 0.9; B: 1.3; C: /; D: /; E: /; F: /; G: -3.3%
CCCCN1C(=O)/C(=C/C=C/c2ccco2)C(=O)NC1=S
  A: -0.3; B: 37.6*; C: /; D: /; E: 3.8; F: -3.0; G: 4.61µM*
NCC(CC(=O)O)c1ccc(Cl)cc1 (configuration not stated)
  A: -4.2; B: -4.6; C: -0.1; D: 2.2; E: -2.6; F: -2.2; G: ?
O=c1[nH]c(=O)n(CCc2ccccc2)c(O)c1C=NCc1ccc2c(c1)OCO2
  A: 16.5; B: -4.9; C: 6.3; D: 0.6; E: 0.7; F: -2.6; G: 1.1%
Cc1cccnc1-n1c(-c2ccccc2)nc2ccccc2c1=O
  A: -9.7; B: -1.4; C: -3.6; D: /; E: 25.2; F: 3.8; G: 0.2%
O=C(Nc1ccccc1)Oc1ccccc1
  A: 12.7; B: 1.1; C: -3.8; D: -10.0; E: -14.4; F: 0.0; G: 22.6%
COc1c2c(cc3c1OCO3)CC[N+](C)=C2
  A: -6.7; B: -2.3; C: 4.6; D: -3.1; E: -5.3; F: 7.4; G: 0.7%
CC(C)n1cc(C(=O)N(CC(=O)NC(C)(C)C)Cc2ccccc2)cn1
  A: 3.4; B: 2.0; C: -1.1; D: -3.3; E: -1.1; F: 1.6; G: -3.6%
CCCCC(=O)N/N=C/c1c(O)n(Cc2ccc(F)cc2)c(=O)[nH]c1=O
  A: 10.6; B: 26.1; C: 4.1; D: 9.3; E: -2.4; F: -1.6; G: 9.3%
CCN(CC)CCN=Cc1c(O)n(Cc2ccccc2)c(=O)[nH]c1=O
  A: 4.4&6.0; B: 5.0&22.7; C: -3.9&7.5; D: -3.4&0.4; E: 0.7&-0.3; F: 5.3&3.4; G: -8.7%&7.0%
CC(=O)NC(Cc1ccc(N(CCCl)CCCl)cc1)C(=O)NC(CC(C)C)C(=O)O (configuration not stated)
  A: -1.6; B: -2.8; C: -3.9; D: -9.1; E: -27.5; F: -2.9; G: /
Cc1ccc(-n2c(O)c(/C=N/c3ncc(Br)cc3Br)c(=O)[nH]c2=O)cc1
  A: -10.3; B: 5.2; C: 0.2; D: 27.2; E: -12.2; F: -1.3; G: -49.3%
CN(C)C(=O)NC(O)C(Cl)(Cl)Cl (configuration not stated)
  A: -8.0; B: -1.8; C: 2.2; D: -10.4; E: -5.6; F: 9.4; G: -1.3%
Cc1ccc(S(=O)(=O)N2Cc3ccccc3-n3nncc3C2)cc1
  A: -11.4; B: 0.5; C: /; D: /; E: /; F: /; G: -1.6%
CCOc1ccc(-c2cc(C)[n+](CCN(CC)CC)c(-c3ccc(OCC)cc3)c2)cc1
  A: 19.9; B: 1.6; C: -3.1; D: -16.3; E: ?; F: -2.4; G: 32.9%
CC(=O)OC1=CC[C@H]2[C@@H]3CC[C@H]4C[C@H](OC(C)=O)[C@@H](OC(C)=O)C[C@]4(C)[C@H]3CC[C@]12C
  A: 7.0; B: 3.4; C: 0.0; D: /; E: /; F: /; G: /
CCN1CCN(Cc2ccccc2C)CC1
  A: -7.6; B: -0.5; C: -4.4; D: -1.4; E: -4.5; F: 3.1; G: 3.4%
CCn1cc(CN2CCCC(C(=O)c3cccc(OC)c3)C2)c(C)n1 (configuration not stated)
  A: -8.4; B: -1.0; C: -8.2; D: -3.7; E: 9.0; F: -4.4; G: 2.2%
CN(C)C(=O)Oc1cccc2c(OC(=O)N(C)C)cccc12
  A: 14.1; B: 1.7; C: -3.2; D: -13.6; E: 4.4; F: -4.3; G: ?
CC(Cc1ccccc1)[n+]1cc(/N=C(\[O-])Nc2ccccc2)on1 (configuration not stated)
  A: -0.6; B: -1.2; C: 4.7; D: -6.1; E: -3.5; F: 2.5; G: 17.9%
O=C(/C=C/c1ccc2c(c1)OCO2)c1c(O)n(CCC2=CCCCC2)c(=O)[nH]c1=O
  A: 12.6; B: -0.3; C: 1.1; D: 56.0; E: /; F: /; G: /
CN1C(=O)C(=CN2CCN(C(=O)c3ccco3)CC2)C(=O)N(C)C1=S
  A: 0.2; B: 5.0; C: -4.2; D: 3.4; E: 23.8; F: 1.3; G: -7.8%
CCN(CC)CCO
  A: -2.2; B: 0.3; C: -23.2; D: -3.6; E: /; F: /; G: /
COc1ccc(C(C)=O)cc1CC(C(=O)c1ccccc1)N(C)C (configuration not stated)
  A: 2.6; B: -3.0; C: 0.3; D: /; E: 14.6; F: 3.2; G: /

Going on with the list:
Screens by letter: A = Beta2AR agonist; B = HNF4A DNA FP; C = LANA-H2A inh; D = ALR H2O2 inh; E = Calb FLC; F = RanGTP-Impb inh; G = Vif A3G
O=C(O)CCn1cc(C=C2C(=O)NC(=O)NC2=O)c(-c2ccc(Br)cc2)n1
  A: 3.5; B: 3.1; C: -2.5; D: 87.2*; E: -3.4; F: 2.0; G: /
O=C1NC(=S)NC(=O)C1=Cc1cccc2cc3ccccc3cc12
  A: 93.5*; B: -27.2; C: /; D: /; E: /; F: /; G: 18.2%
CN1CCN(c2nc3ccccc3c(=O)n2-c2ccccc2)CC1
  A: -3.5; B: -2.4; C: -2.3; D: /; E: -2.2; F: -1.3; G: -2.0%
COC(=O)C1=C(c2ccccc2OCc2ccccc2)C[C@@H]2CC[C@H]1N2C(=O)NCc1ccc(OC)cc1
  A: -3.5; B: 5.9; C: 1.8; D: -2.6; E: /; F: /; G: /
CCCN(CC#CCO)CCC
  A: -1.3; B: 1.8; C: 0.0; D: -2.6; E: 5.4; F: 26.4; G: 31.1%
CC(C)(O)[C@@H]1[C@H]2OC(=O)[C@@H]1[C@]1(O)C[C@H]3O[C@]34C(=O)O[C@H]2[C@]14C (tested in a mixture with another compound)
  A: /; B: /; C: 0.7; D: 2.4; E: -2.4; F: -6.7; G: /
Cn1c(O)c(/C=N/N2CCOCC2)c(=O)[nH]c1=S
  A: /; B: /; C: -1.9; D: 9.1; E: -1.4; F: 0.4; G: 7.1%
CNC(=O)c1cccn(Cc2cccc(C(F)(F)F)c2)c1=O
  A: -1.2; B: -0.2; C: -5.9; D: -4.8; E: -2.7; F: 0.9; G: -7.2%
O=c1[nH]c(=S)n(C2CC2)c(O)c1C=NCCN1CCOCC1
  A: 1.5; B: 1.9; C: 1.5; D: 3.2; E: -3.7; F: 3.8; G: 1.0%
O=C(c1ccccc1)c1ccc(N=Nc2c(O)[nH]c(=O)[nH]c2=O)cc1
  A: -7.1; B: 3.4; C: 5.0; D: 1.5; E: 1.0; F: 1.9; G: 2.9%
O=C(Cn1nc(Cc2cccnc2)c2ccccc2c1=O)N1CCC2(CC1)OCCO2
  A: 0.4; B: -18.5; C: -0.9; D: -6.2; E: 11.6; F: 0.1; G: 7.4%
COc1cc(-c2ccc(N)c(OC)c2)ccc1N
  A: 1.2; B: -1.2; C: 0.6; D: ?; E: /; F: /; G: /

In the list so far, 8 contain an NH in an aromatic ring:
Screens by letter: A = Beta2AR agonist; B = HNF4A DNA FP; C = LANA-H2A inh; D = ALR H2O2 inh; E = Calb FLC; F = RanGTP-Impb inh; G = Vif A3G
O=c1[nH]c(=O)n(CCc2ccccc2)c(O)c1C=NCc1ccc2c(c1)OCO2
  A: 16.5; B: -4.9; C: 6.3; D: 0.6; E: 0.7; F: -2.6; G: 1.1%
CCCCC(=O)N/N=C/c1c(O)n(Cc2ccc(F)cc2)c(=O)[nH]c1=O
  A: 10.6; B: 26.1; C: 4.1; D: 9.3; E: -2.4; F: -1.6; G: 9.3%
CCN(CC)CCN=Cc1c(O)n(Cc2ccccc2)c(=O)[nH]c1=O
  A: 4.4&6.0; B: 5.0&22.7; C: -3.9&7.5; D: -3.4&0.4; E: 0.7&-0.3; F: 5.3&3.4; G: -8.7%&7.0%
Cc1ccc(-n2c(O)c(/C=N/c3ncc(Br)cc3Br)c(=O)[nH]c2=O)cc1
  A: -10.3; B: 5.2; C: 0.2; D: 27.2; E: -12.2; F: -1.3; G: -49.3%
O=C(/C=C/c1ccc2c(c1)OCO2)c1c(O)n(CCC2=CCCCC2)c(=O)[nH]c1=O
  A: 12.6; B: -0.3; C: 1.1; D: 56.0; E: /; F: /; G: /
Cn1c(O)c(/C=N/N2CCOCC2)c(=O)[nH]c1=S
  A: /; B: /; C: -1.9; D: 9.1; E: -1.4; F: 0.4; G: 7.1%
O=c1[nH]c(=S)n(C2CC2)c(O)c1C=NCCN1CCOCC1
  A: 1.5; B: 1.9; C: 1.5; D: 3.2; E: -3.7; F: 3.8; G: 1.0%
O=C(c1ccccc1)c1ccc(N=Nc2c(O)[nH]c(=O)[nH]c2=O)cc1
  A: -7.1; B: 3.4; C: 5.0; D: 1.5; E: 1.0; F: 1.9; G: 2.9%

Compound profiles, as listed above:
CNC(=O)c1cccn(Cc2cccc(C(F)(F)F)c2)c1=O is listed with Beta2AR agonist: -1.2; HNF4A DNA FP: -0.2; LANA-H2A inh: -5.9; ALR H2O2 inh: -4.8; Calb FLC: -2.7; RanGTP-Impb inh: 0.9; Vif A3G: -7.2%
O=c1[nH]c(=S)n(C2CC2)c(O)c1C=NCCN1CCOCC1 is listed with Beta2AR agonist: 1.5; HNF4A DNA FP: 1.9; LANA-H2A inh: 1.5; ALR H2O2 inh: 3.2; Calb FLC: -3.7; RanGTP-Impb inh: 3.8; Vif A3G: 1.0%
